Source: PubChem
HCMV NEC inh = inhibitors of HCMV UL50-UL53 nuclear egress complex interaction; HTRF UL50-UL53 interaction, normalized percent inhibition; inhibition, % (concentration not given with the values); 190,000 compounds, 0.15% hits;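 active = both replicates at 50% or more, plus weaker picks with an unusually low signal ratio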;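 note: stock transfer was 100 nL into about 20 µL; 0% = negative control wells and 100% = wells with untagged competitor protein; inactives centre near -12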
Sa growth 42C = S. aureus growth inhibition. S. aureus RN4220 growth, OD600, 20 h, 42 °C; active compounds read low. relative growth, % (concentration not given with the values). 170,000 compounds, 0.53% hits;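 active = growth at 42 °C up to 50% and 20 or more points under that at 30 °C, or under 10% at both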;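 note: 300 nL library stock went into each well; scaled to the means of positive and negative controls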
GIV Gai3 FP = GIV-Galpha-i interaction inhibition | P08753 | AID 1224905 | Galpha-i3/FITC-GIV peptide fluorescence polarization, 90 min; active compounds read low; scaled: aluminum fluoride 0%, vehicle 100% | 210,000 compounds, 0.42% hits | percent of control (FP), % (no concentration beside the values);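 active = replicate mean at 85% of control or lower, very high polarization wells dropped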;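 note: wells of about 15 µL received 100 nL stock; the first replicate is given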
Target sequence (P08753 whole entry, looked up): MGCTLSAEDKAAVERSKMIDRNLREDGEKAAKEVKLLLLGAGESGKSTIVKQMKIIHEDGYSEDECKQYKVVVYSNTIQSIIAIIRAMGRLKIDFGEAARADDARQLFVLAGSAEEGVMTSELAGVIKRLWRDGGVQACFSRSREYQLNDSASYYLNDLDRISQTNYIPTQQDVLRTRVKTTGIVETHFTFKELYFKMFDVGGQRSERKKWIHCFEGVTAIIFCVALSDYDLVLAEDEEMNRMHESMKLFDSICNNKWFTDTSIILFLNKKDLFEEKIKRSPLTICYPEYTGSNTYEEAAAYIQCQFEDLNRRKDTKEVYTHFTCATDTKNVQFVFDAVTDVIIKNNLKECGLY
Sa growth 42C second temp = further read-out of Sa growth 42C, marked with its call; relative growth, %; measured here: growth at 30 °C;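 optical density after 20 h as mean of two plates; 100% = untreated growth and lower means inhibition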
Active calls of the source: *; / = not tested or not shown; & = joins results of further samples.

SMILES	HCMV NEC inh	Sa growth 42C	Sa growth 42C second temp	GIV Gai3 FP
N#CCn1c(CSc2nncn2-c2ccccc2)nc2ccccc2c1=O	-6	77	80	/
Cc1ccccc1-c1nc(CS(=O)(=O)CC(=O)NCc2ccc3c(c2)OCO3)c(C)o1	/	89	88	102
N#Cc1nc(Cl)ccc1Cl	-9	89	47	/
Cc1noc(C)c1NC(N)=O	-10	97	102	103
COc1ccccc1CCNC(=O)Cc1ccc(NC(=O)N2CCSc3ncccc32)cc1	/	99	96	105
CN(C)/C=N/c1nnc(SCC(=O)c2ccc(F)cc2)s1	2	89	91	97
Cc1ccc2c(c1)N(C(=O)CSc1nc3ncccc3[nH]1)CCO2	10	99	96	111
CCN(CC)S(=O)(=O)c1c[nH]c(C(=O)OC)c1	5	99	102	100
N#Cc1ccsc1NC(=O)C1C2C=CC(C2)C1C(=O)O (stereo not drawn)	-1	98	103	94
O=C1CC2(CCN(C(=O)/C=C\c3ccccc3)CC2)Oc2ccccc21	-23	98	97	98
CCNS(=O)(=O)c1ccc(CCC(=O)N2CCCCC2)cc1	-4	124	101	106
C=C(C)n1c(=O)n(Cc2ccccc2C)c2ccccc21	-5	83	63	105
CCOc1cccc2sc(N(Cc3cccnc3)C(=O)c3ccco3)nc12	/	105	87	100
O=C1CC(c2cccc(Cl)c2Cl)c2cc3c(cc2N1)OCCO3 (stereo not drawn)	0	101	98	103
CCOc1ccc(S(=O)(=O)N2CCN(C(=O)c3sccc3C)CC2)cc1	-6	95	102	/
CCOC(=O)c1ccc(NC(=O)CN2C(=O)S/C(=C/c3ccccc3)C2=O)cc1	-16	/	/	100
Cc1cc(C)cc(N(CC(=O)NC2CCCc3ccccc32)S(=O)(=O)c2c(C)[nH]c(=O)[nH]c2=O)c1 (stereo not drawn)	5	106	88	109
O=C(NCCSc1nnnn1-c1ccccc1)c1ccccc1	/	94	88	99
COc1cccc(C2C3=C(CC(C)(C)CC3=O)NC3=C2C(=O)CC(C)(C)C3)c1	-22	91	82	/
Nc1c(C2=NCCO2)nnn1Cc1ccccc1	-5	98	86	92
O=C(O)c1ccc(NCc2nc3ccccc3n2Cc2ccccc2)cc1	-4	98	71	102
COCc1cc(C)nc2sc3c(c12)NCN(c1ccc(C)cc1)C3=O	-101	/	/	106
Cn1nnnc1NCc1ccc(-c2cccc(Cl)c2)o1	-7	/	/	127
CC(O)CNc1nc2ccccc2nc1-c1ccccc1 (stereo not drawn)	-72	98	96	97
CN(C)C(CNc1ncnc2sccc12)c1cccs1 (stereo not drawn)	-37	103	95	/
CCN(C(=O)c1cc2c(Cl)nc3ccc(C)cc3c2s1)c1cc(OC)ccc1OC	2	104	85	108
O=C(CN1C(=O)c2ccccc2C1=O)ON=C1CCCCC1	-21	102	105	103
N#Cc1cc2c(ccc3ccccc32)oc1=N	-76	102	102	115
CCc1ccccc1NC(=O)C(=O)c1cc(C)n(-c2ccccc2F)c1C	0	104	100	108
COC(=O)c1ccc(-n2c(C)ccc2C)cc1	-24	106	92	/
CCOCCCNC(=O)CCc1c(C)nn(-c2cc(N3CCOCC3)ncn2)c1C	19	/	/	103
C=CCNC(=O)c1cccc(Oc2ccccc2)c1	-3	99	103	107
CCOc1ccc(NC(=O)Nc2nc(-c3ccc(Oc4ccccc4)cc3)cs2)cc1	1	/	/	111
O=C(c1cc(-c2cccnc2)on1)N1CCCCC1	4	/	/	99
Cc1ccc(Cn2c(C)c(CNCc3ccc(OC(C)C)cc3)c(C(=O)O)c2C)cc1	1	75	100	110
CC(NC(=O)c1cc2sccc2s1)c1ccccc1 (stereo not drawn)	-9	101	80	99
CC1(C(=O)O)COC(c2ccc(Cl)cc2)OC1 (stereo not drawn)	-12	91	98	98
COc1cccc(NC(=O)CSc2nc(=O)n(Cc3ccccn3)c3c2CCC3)c1	/	117	85	101
Cc1ccc(N(C(=O)c2ccco2)C(C(=O)NC2CCCC2)c2ccc(N(C)C)cc2)c(C)c1 (stereo not drawn)	5	57	58	110
C=CCN(CC=C)C(=S)Nc1ccc2nc(C)c(C)nc2c1	-47	82	71	100
O=C1CCCCC(=O)N(c2ccccc2)c2ccccc21	-18	87	85	103
Cc1ccc(Cl)cc1NC(=O)CCS(=O)(=O)c1ccc2c(c1)NC(=O)CS2	-16	/	/	119
Cc1ccc(Cl)cc1NC(=O)CC1Sc2ccccc2NC1=O (stereo not drawn)	-24	103	91	108
Cc1cc2oc(=O)cc(CN(C)c3ccccc3)c2cc1C	0	84	94	/
COc1ccc(Oc2cccc(Cl)c2CNC(=O)c2ccccc2N)cc1	-10	97	80	101
CCc1nnc(NC(=O)c2c(O)c3ccccc3n(C)c2=O)s1	-21	93	39	97
O=C(CCN1C(=O)/C(=C\c2cccs2)SC1=S)Nc1ccc(F)cc1	-15	/	/	109
CC(C(=O)c1ccccc1)S(=O)(=O)c1ccccc1 (stereo not drawn)	-7	98	113	98
COc1ccccc1N1CCN(CC(O)COc2cccc3ccccc23)CC1 (stereo not drawn)	-14&-11&-8&-8&-36&-17&-23	89&90	81&74	101&97
O=C(O)c1cc2cc(Cl)ccc2[nH]c1=O	-27	91	82	101

More entries follow:
SMILES	HCMV NEC inh	Sa growth 42C	Sa growth 42C second temp	GIV Gai3 FP
O=C(Nc1ccc2nc[nH]c2c1)C1CCCCC1	8	89	100	103
O=S(=O)(Nc1ccc(Oc2ncnc3cc(Cl)ccc23)nc1)c1ccc(-c2ccccn2)s1	10	97	84	93
Cc1ccc2nc(NC(=O)CSc3nccn3-c3ccc(Cl)cc3)sc2c1	/	110	82	97
CN(c1ccc(F)cc1)S(=O)(=O)c1ccc2[nH]cc(C(=O)O)c(=O)c2c1	10	111	98	/
CCNS(=O)(=O)c1ccc(NC(=O)c2nc3nc(C)cc(C(F)F)n3n2)cc1	-28	96	87	102
CCNc1oc(-c2cccs2)nc1S(=O)(=O)c1ccc(Cl)cc1	-6	/	/	99
CCN(CC)c1ccc(NS(=O)(=O)c2ccc(-c3coc(C)n3)cc2)c(C)c1	/	94	79	106
O=C(NCc1ccccc1Cl)c1cccn1-c1nnc(N2CCOCC2)s1	-13	/	/	106
Cc1sc(-c2noc(C3CCC3)n2)cc1S(=O)(=O)N1CCC(C(=O)NCC2CCCO2)CC1 (stereo not drawn)	-6	/	/	108
COc1cccc2sc(NC(=O)c3ccc(S(=O)(=O)N4CC(C)CC(C)C4)cc3)nc12 (stereo not drawn)	2	/	/	105
O=C(CN1CCC(c2nc3ccccc3[nH]2)CC1)N1CCCCC1	-41	75	92	99
O=C(Cc1ccccc1)Nc1c(C(=O)N2CCCC2)oc2ccccc12	-22	98	77	98
O=C(COC(=O)Cc1ccsc1)Nc1ccccc1C(F)(F)F	25	87	99	/
CC1CCN(c2nc(Cc3ccc(Cl)cc3Cl)nc3c2nnn3C)CC1	/	91	91	102
COc1ccc(C2C(C(N)=O)=C(C)Nc3nc(CCCO)nn32)c(OC)c1 (stereo not drawn)	-28	87	83	109
Cc1ccc(N2CC(C(=O)O)CC2=O)cc1C (stereo not drawn)	/	107	99	109
CSc1nc(-n2nc(C)cc2C)c2c3c(sc2n1)COC(C)(C)C3	-18	100	100	106
CC(C)CCNC(=O)c1cc2c(s1)CSC2	/	84	63	103
COC(=O)CSc1nc2cc(OC)c(OC)cc2cc1C	-20	95	92	98
Cc1c(-c2nc(-c3ccccc3)no2)nnn1-c1ccc(Cl)cc1	-20	/	/	108

Results in Sa growth 42C, HCMV NEC inh and GIV Gai3 FP (three entries from above):
SMILES	Sa growth 42C	HCMV NEC inh	GIV Gai3 FP
O=C(CN1CCC(c2nc3ccccc3[nH]2)CC1)N1CCCCC1	75	-41	99
Cc1ccc(N2CC(C(=O)O)CC2=O)cc1C (stereo not drawn)	107	/	109
Cc1c(-c2nc(-c3ccccc3)no2)nnn1-c1ccc(Cl)cc1	/	-20	108

(further entries)
SMILES	HCMV NEC inh	Sa growth 42C	Sa growth 42C second temp	GIV Gai3 FP
Cc1ccc(-n2nc(C)c3c(C)c(CCC(=O)NC(C)CCc4ccco4)c(C)nc32)cc1 (stereo not drawn)	2	94	83	104
CCN(CC)C(=S)N=P(c1ccccc1)(N1CCOCC1)N1CCOCC1	11	105	86	/
CCc1ccc(NC(=O)C(NS(=O)(=O)c2cccc3nsnc23)c2ccccc2)cc1 (stereo not drawn)	-75	97	90	105
Cc1ccc(NC(=O)CN2C(=O)C(C)(C)c3ccccc32)cc1	/	109	82	102
Oc1ccccc1CNc1cnc2ccccc2c1	-29	109	105	/
O=C(Cn1nc2n(CCc3ccccc3)c(=O)c3ccccc3n2c1=O)NC1CCCCC1	-15	/	/	104
Cc1ccc(C)c(N2CCN(C(=O)c3ccc(S(=O)(=O)c4ccc(C)c(C)c4)nc3)CC2)c1	-26	/	/	101
C=CCc1c(C)nn(-c2nc(CC(=O)Nc3nc4ccccc4[nH]3)cs2)c1C	-18	/	/	104
C#CCSc1nnc2[nH]c(=O)cc(CCC)n12	-37	85	81	101
CCOc1ccc(-c2noc(Cn3ncn4nc(-c5ccc(OC)cc5)cc4c3=O)n2)cc1OC	-27	/	/	101
CCOc1ccccc1NC(=O)C1=NS(=O)(=O)c2ccccc2N1	-26	/	/	97
CC(C(=O)N1CCCC1)N1CCN(S(=O)(=O)c2cccs2)CC1 (stereo not drawn)	-15	94	96	/
O=C(O)c1cc2cc(F)ccc2[nH]1	-3	/	/	103
O=C(Nc1ccc(S(=O)(=O)NC23CC4CC(CC(C4)C2)C3)cc1)C1CC1	2	88	95	102
Cc1ccc(C(=O)NCC(=O)O)cc1C	-20	123	89	/
CC(=O)Nc1ccccc1N1CCN(S(C)(=O)=O)CC1	2	99	105	100
CCCCNC(=O)C12CCC(C)(C(=O)C1)C2(C)C (stereo not drawn)	-7	88	94	102
CCOC(=O)c1[nH]c(C)c(S(=O)(=O)N2CCN(C)CC2)c1C	-12	/	/	102
COc1cc(OC)c2c(C)cc(=O)oc2c1	-9	65	89	106
O=C(Nc1ccccc1)N1CCCC1c1ccc(Cl)cc1 (stereo not drawn)	-34	/	/	103
CCC(C(=O)NCCCN1CCCC1)N1C(=O)CCCc2ccccc21 (stereo not drawn)	1	/	/	114
O=C(COC(=O)C1CC2C=CC1C2)NCc1ccco1 (stereo not drawn)	-28	118	81	/
Cn1nnnc1SCC(=O)N1CC2(C)CC1CC(C)(C)C2 (stereo not drawn)	-8	94	89	/
CC(C)N1C(=O)C(C#N)C2(CCNCC2)C(C#N)=C1S (stereo not drawn)	-5	121	78	/
CC(C)CCNC(=O)[C@@H](c1ccccc1)N1Cc2ccccc2C1=O	-14	93	86	107
CCC(c1ccc(F)cc1)n1cc(C(=O)NCCc2ccco2)nn1 (stereo not drawn)	-4	82	79	103
CCN(CC)C(=O)C1=CC(c2ccc3c(c2)OCO3)=NS(=O)(=O)N1C	-52	98	94	104
COc1ccc(/C=C(/C#N)c2ccc(Cl)cc2)cc1OC	-21	63	69	/
COC(=O)Cc1nc(-c2cccs2)no1	/	96	90	96
O=C(O)CCC1COc2ccccc2O1 (stereo not drawn)	/	88	87	98
O=C(Nc1ccc2nonc2c1)N1CCOCC1	9	103	99	109

Ordered by length of the SMILES (rising): part of the list above
SMILES	HCMV NEC inh	Sa growth 42C	Sa growth 42C second temp	GIV Gai3 FP
O=C(O)CCC1COc2ccccc2O1 (stereo not drawn)	/	88	87	98
COC(=O)Cc1nc(-c2cccs2)no1	/	96	90	96
O=C(Nc1ccc2nonc2c1)N1CCOCC1	9	103	99	109
O=C(COC(=O)C1CC2C=CC1C2)NCc1ccco1 (stereo not drawn)	-28	118	81	/
COc1ccc(/C=C(/C#N)c2ccc(Cl)cc2)cc1OC	-21	63	69	/
CCC(C(=O)NCCCN1CCCC1)N1C(=O)CCCc2ccccc21 (stereo not drawn)	1	/	/	114
CCN(CC)C(=O)C1=CC(c2ccc3c(c2)OCO3)=NS(=O)(=O)N1C	-52	98	94	104
